Screening data from PubChem BioAssay.
NPYLR7 agonist: mosquito NPYLR7 agonism; AID 1259423; HEK293T NPYLR7/Galpha15, GCaMP6s calcium fluorescence; activation, % at 10 µM; hit rate 0.15% among 270,000; in the data active = activation above about 40%;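 also: 0% = vehicle and 100% = reference agonist at the receptor; some compounds past the cut are filed as inactive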
NPYLR7 agonist max-min: recorded beside NPYLR7 agonist, whose call it bears; activation, %; measured here: Max-Min RFU normalised activation; some inactives read as strong as hits;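 span of the calcium signal over five minutes; 0% = vehicle and 100% = native peptide agonist; compound fluorescence can raise it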
* hit, by the source's call; & = joins results of further samples. Not all compounds are listed (hit frequency here may not be typical).

Order of values – NPYLR7 agonist, NPYLR7 agonist max-min
COc1cc2c(=O)[nH]c(-c3ccc(C)o3)nc2cc1OC(F)F
    4, 3
CC(C)=CCN1CCN(Cc2cccc(C)n2)CC1CCO (stereo not given)
    3&-10, 3&-8
O=C(CC1(O)C(=O)Nc2ccc(Br)cc21)c1cccs1 (stereo not given)
    3, 1
CCOC(=O)c1[nH]c(C)c(C(=O)C(C)N(CCOC)C(=O)c2ccc(C)c([N+](=O)[O-])c2)c1C (stereo not given)
    -6, -2
COc1ccc(C=C(C#N)c2nc(-c3ccc(F)cc3)cs2)cc1O
    14, 17
Cc1ccc2c(C(=O)N(C)Cc3cnccn3)cc(C)nc2c1
    1, -4
COc1cccc(C(=O)N2CCOC(COCc3cccc(C(F)(F)F)c3)C2)c1C (stereo not given)
    3, 0
CCn1c(CN(C)Cc2nnc(C)o2)nc2ccccc21
    6, 3
Cc1cnc(C)c(-c2cc(F)cc3c2OC(CNC(=O)c2ccc(Cn4nc(C)cc4C)cc2)C3)n1 (stereo not given)
    25, 11
O=C(Nc1cc(F)cc(F)c1)C1CCCCN1Cc1cc(=O)c(O)co1 (stereo not given)
    -1, 1
CCCC1(c2ccccc2)NC(=O)N(CC(=O)c2ccccc2F)C1=O (stereo not given)
    13, 7
COc1ccc(OCCSc2nnnn2C2CCCCC2)cc1
    3, 0
CCSc1nc(CC(=O)NC2Cc3ccccc3C2)cs1
    3, 2
COCCNC(=S)N(C)C1CCC2(CC1)OCC(C)(C)CO2
    -7, -10
COCCn1c(-c2cn(C)nc2OC)n[nH]c1=S
    -1, -2
Cc1cc(-n2c(C)cc(C(=O)COC(=O)C34CC5CC(CC(O)(C5)C3)C4)c2C)no1
    0, 5
CCCn1c(SCc2cccc(C#N)c2)nc2cc(S(=O)(=O)N3CCOCC3)ccc21
    -6, -8
COc1ccc2c(c1)C1(CC(=O)N(CC(=O)N(C)C)C1=O)C(=O)N2CCCN1C(=O)c2ccccc2C1=O (stereo not given)
    -3, -7
Cc1ccc(-c2cc(C(=O)Nc3c(C)cccc3C)c3c(C)noc3n2)s1
    2, 5
CSc1ccccc1-n1nnnc1SCSc1nnnn1-c1ccccc1SC
    -4, 15
CCOC(=O)COc1c(Br)cc(Br)c2cccnc12
    -11, -12
Cc1ccc(C(=O)CSc2nccn(-c3cccc(F)c3)c2=O)c(C)c1
    5, -2
O=C(Nc1c(-c2ccc(F)cc2)nc2ccccn12)C1CCCCC1
    -3, -2
CCNc1cc(C)nc(N2CCN(C(=O)Nc3ccc(Cl)cc3)CC2)n1
    10, 0
CC[C@H]1OC(=O)[C@H](C)[C@@H](OC2C[C@@](C)(OC)[C@@H](O)[C@H](C)O2)[C@H](C)[C@@H](O[C@@H]2O[C@H](C)C[C@H](N(C)C)[C@H]2O)[C@](C)(O)C[C@@H](C)/C(=N/OCOCCOC)[C@H](C)[C@@H](O)[C@]1(C)O (stereo not given in full)
    -2, -8
COCC1CCCN(C(=O)c2ccc3nc(Cc4cccc(Cl)c4)oc3c2)C1 (stereo not given)
    16, 5
CCOC(=O)[C@@H]1[C@@H](OC)C(=O)N(Cc2ccccc2)C12CCN(C(=O)C1CCC1)CC2
    14, 23
COc1ccccc1Oc1cc(C(F)(F)F)nc(SCc2c(F)cccc2F)n1
    1, 5
COCCNC(=S)NCCc1cc2cc(C)c(C)cc2[nH]c1=O
    4, 3
Cc1ccc(C)c(C(=O)C(C)Sc2nnc(-c3ccc4c(c3)OCO4)o2)c1 (stereo not given)
    5, 2
O=S1(=O)CCC(N(Cc2ccccc2)Cn2nc(-c3cccs3)oc2=S)C1 (stereo not given)
    5, 7
C=CCn1c(C)c(N2CCOCC2)c(C)c1C(=O)Nc1ccc(C(C)C)cc1
    9, 8
CCC(NS(=O)(=O)NCc1ccccc1)c1cc(C)ccn1 (stereo not given)
    10, 8
CCCOC(=O)N1CCn2nc(-c3nc4ccccc4n3C)cc2C1
    13, 12
Cc1nn(C)c(C)c1C(OC(=O)c1cscn1)C(F)(F)F (stereo not given)
    2, 778
CCOC(=O)CCC(=O)N1CCN(c2nc(COC)nc3sc4c(c23)CCCC4)CC1
    -10, -5
CC(=O)c1sc(=Nc2ccc(Cl)cc2)n(CCO)c1C
    3, -1
O=c1c2c(-c3ccccc3)n3ncnc3nc2ccn1CCCN1CCOCC1
    0, 5
CC(C)C[C@H]1CN(C(=O)c2coc3ccccc23)CC[C@@]1(C)O
    1, -2
CCc1nn(-c2nc(OC)cc(OC)n2)c(N)c1C#N
    3, 9
COc1ccc(C(C)NC(=O)c2cc(C#N)cn2C)cc1F (stereo not given)
    5, 3
Cn1c(CCCNC(=O)c2cn(-c3ccccc3)nn2)nc2ccccc21
    1, 3
Cc1ccsc1[C@@H]1CCN(Cc2ccc3c(C)cc(=O)oc3c2)C[C@H]1O
    10, 5
CNc1ccc(C(=O)N2CCOC(COc3ccc(Cl)c(C)c3)C2)cc1 (stereo not given)
    -5, -10
Cc1nc(S(=O)(=O)CC(=O)Nc2cc(F)ccc2F)n(CC(C)C)c1C
    5, 2

Of the compounds above, two have a furan ring, fused or not.
Order of values – NPYLR7 agonist, NPYLR7 agonist max-min
COc1cc2c(=O)[nH]c(-c3ccc(C)o3)nc2cc1OC(F)F
    4, 3
CC(C)C[C@H]1CN(C(=O)c2coc3ccccc23)CC[C@@]1(C)O
    1, -2

Further entries follow.
Order of values – NPYLR7 agonist, NPYLR7 agonist max-min
CCOCCn1c(=O)c2c(OCC)c(CC)cnc2n(C)c1=O
    -5, -6
C=c1onc(-c2ccccc2Cl)c1=C1N=C(c2ccccc2Cl)NO1
    5, 5
CCNC(=O)C1(C)CCCN1C(=O)c1ccc(C(C)(C)C)cc1 (stereo not given)
    -7, -7
CCN(C(=O)c1ccccc1N1CCC(NC(=O)c2cc(F)cc(F)c2)CC1)C1CCCCC1
    19, 12
Cc1nn(-c2ccc(F)cc2)c2nc(N)c(C#N)c(-c3ccc(O)c(O)c3)c12
    8, 3
Cc1ccc2nc(C)cc(C(=O)N(C)Cc3nnc(-c4ccccc4)o3)c2c1
    -1, -4
COc1ccccc1Oc1ncccc1CNc1ncccc1Cl
    0, -4
CCc1ccc(S(=O)(=O)NCCOc2ccc(-c3ccc(OC)cc3)nn2)cc1
    -9, -15
COC(=O)c1cc(-c2ccc(C)cc2)nc2c1c(C)nn2C1CCS(=O)(=O)C1 (stereo not given)
    13, 5
CCCC1COCCN1S(=O)(=O)NCc1ccccc1 (stereo not given)
    9, 7
COCC(=O)N(Cc1ccc(OC)c(OS(C)(=O)=O)c1)C(C)C
    17, 22
CN(C)c1ccc(NC(=O)C2CC2)cc1CN(Cc1ccc(F)cc1)C(=O)c1ccccc1Cl
    21, 30
COc1ccc(-c2cc(C(F)(F)F)n3ncc(C(=O)Nc4cccc(C(C)=O)c4)c3n2)cc1OC
    11, 19
Cc1ccc(C(C)C)c(OCC(=O)N(Cc2nnc(-c3ccccc3)o2)C(C)C)c1
    5, 7
O=C(NCCCC(=O)N1CCOC(COCc2ccccc2)C1)OCc1ccccc1 (stereo not given)
    23, 27

3 of the compounds above, tab-delimited:
Compound	NPYLR7 agonist	NPYLR7 agonist max-min
Cc1ccc2nc(C)cc(C(=O)N(C)Cc3nnc(-c4ccccc4)o3)c2c1	-1	-4
COc1ccccc1Oc1ncccc1CNc1ncccc1Cl	0	-4
CCc1ccc(S(=O)(=O)NCCOc2ccc(-c3ccc(OC)cc3)nn2)cc1	-9	-15

The listing continues.
Order of values – NPYLR7 agonist, NPYLR7 agonist max-min
COc1ccc(N=C2NN=C(c3cnn(C)c3)CS2)cc1F
    2, 1
O=C(c1ccc(Cl)cc1)N(CCN1CCOCC1)Cc1nccn1Cc1ccccc1F
    -16, -14
CC(=O)N1CCc2c(sc(NC(=O)C3=COCCO3)c2-c2nc3ccccc3s2)C1
    3, -2
Cc1ccc2c(C)c(CCC(=O)NCCOc3ccccc3)c(=O)oc2c1
    11, 4
O=C(N/N=C\c1ccc[nH]1)C1CC1c1ccccc1 (stereo not given)
    -7, -15
Fc1cccc2sc(Cl)nc12
    -25, -26
CNc1cccc(-c2ccc(C(C)=O)s2)n1
    3, 1
CCCN(CCC)C(=O)c1cc(-c2ccccc2)nc2cc(C(C)(C)C)nn12
    7, 10
CCc1ccc(C(=O)Nc2nc(-c3cccc(Cl)c3)cs2)o1
    8, 5
COc1ccc(-c2noc(C3CCN(C(=O)c4c(-c5ccccc5)noc4C)CC3)n2)cc1
    3, 3
O=c1ccc(-c2ccc(Cl)cc2)nn1CCNS(=O)(=O)c1ccc(Oc2ccccc2)cc1
    -2, -4
COc1ccc(CN(CCN2CCOCC2)CC(O)COCC(C)C)cc1 (stereo not given)
    21, 14
CCCC(=O)N1CCN(c2ncnc3c2nnn3Cc2ccccc2)CC1
    -6, -15
O=[n+]1c2c(n([O-])c3c1CCC3)CCCC2
    -1, -2
CCc1nnc(NC(=O)CC(=O)Nc2ccccc2C(=O)O)s1
    19, 18
CCOC(=O)C1(C/C=C/c2ccccc2)CCCN(C(=O)c2c(CC)noc2C)C1 (stereo not given)
    3, -1
Clc1cc(Cl)c2nc(Cl)sc2c1
    3, -9
COc1ccc(NC(=O)Nc2ccc(-n3nc(OCc4ccc(F)cc4)nc3-c3ccc(C(F)(F)F)cc3)cc2)cc1
    11, 16
CCOc1ccc(C(C2Sc3nc(C)nn3C2=O)N2CCN(c3ccc(OC)cc3)CC2)cc1 (stereo not given)
    -6, -11
CCCC(CCC)C(=O)O
    -4&-2&-2&-7&-2, -9&-8&-7&-13&17
CCC1SC(=NN=Cc2ccco2)NC1=O (stereo not given)
    -25, -31
NC(=O)CC1SC(=O)N=C1N (stereo not given)
    4, 11
C=CCn1c(SCc2ccc(C(=O)c3ccccc3)cc2)nnc1-c1cc(-c2ccccc2)nc2ccccc12
    2, 12
COc1ccccc1-c1cn2c(C(=O)N3CCN(C)C(=O)[C@@H]3C)csc2n1
    4, -5
Cc1ccccc1CCCN1CCN(CC#N)CC1
    -2, -4
Cc1nn(-c2nc(C)c(C)c(=O)[nH]2)c(C)c1CCC(=O)Nc1ccon1
    10, 1
Cc1ccc(-c2nc(C3CCN(Cc4nc[nH]c4C)CC3)cc(=O)[nH]2)cn1
    14, 4
CN1CC2(CCN(C(=O)c3cnc(Nc4ccccc4)nc3)C2)OC1=O (stereo not given)
    -3, -4
Cc1cc(C)n(CC(=O)NC2CCCCCCC2)n1
    3, 2
Cc1ccc(-n2ncc3c2CC(C)(C)CC3NC(=O)/C=C/C(C)C)cc1 (stereo not given)
    -19, -23
CCOCCCN(CC(=O)N1CCc2sccc2C1c1ccccc1)C(=O)COc1ccccc1 (stereo not given)
    19, 25
O=C1c2ccccc2C(=O)N1CN1CCOCC1
    3, 4
CC(=O)Nc1ccc(C(=O)NCc2nnc3n2CCCCC3)cc1
    -6, -8
COCC(=O)N1CCCN(Cc2cc3cc(OC)ccc3[nH]c2=O)CC1
    2, 2
O=C(COC(=O)C1CC(=O)N(Cc2ccccc2)C1)c1ccc(Br)cc1 (stereo not given)
    1, -1
CN(C)S(=O)(=O)NCc1ccc2c(c1)OCO2
    10, 7
O=S1(=O)N=C(Nc2cccc(F)c2)c2ccccc21
    -3, -4
O=C(CN1CCC(c2ccccc2)C1)N1CCn2cncc2C1 (stereo not given)
    -2, -10
O=C(Nc1cc(F)cc(F)c1)NC1(CO)Cc2ccccc2C1
    -2, -3
CC(C)C1OC(C(C)C)OC(C(C)C)O1 (stereo not given)
    -5, -8
CCOc1cccc(-c2cc(C(=O)O)c3[nH]c(-c4ccc(OC)cc4)nc3n2)c1O
    0, 0
COc1ccc(CCN2CC(C(=O)N(C)Cc3ccccn3)CCC2=O)cc1 (stereo not given)
    0, -4
CCc1csc(C2CCCN(C(=O)c3nccn4ccnc34)C2)n1 (stereo not given)
    -2, -4
Cc1cc2ccccc2n1CCNC(=O)CC1C(=O)NCCN1Cc1ccoc1 (stereo not given)
    6, 3
CC(=O)c1cccc(NC(=O)c2c(-c3ccccc3Cl)noc2C)c1
    -8, -14
COc1ccc(CNC(=O)c2ccc(=O)n(C)c2)cc1C
    11, 3
Cc1ccc2cc(CNC34CC5CC(CC(C5)C3)C4)c(N3CCC(O)CC3)nc2c1
    18, 2
Cc1c(C(=O)OCCn2c(C)csc2=O)cnn1-c1ccccc1
    -3, -3
COc1ccc(-c2ccc(C(=O)Nc3ccc(C)cc3[N+](=O)[O-])o2)c([N+](=O)[O-])c1
    -1, 5
CCOc1ccc(NC(=O)NC(C)c2nnc(SCc3ccc(F)cc3)n2-c2ccc(C)cc2)cc1 (stereo not given)
    -2, -3
O=c1c2c3c(sc2nc2n1CCCCC2)CCCCC3
    -2, -4
Cc1ccc(OCC(=O)OCc2cc(-c3ccc4c(c3)OCO4)on2)cc1
    0, 0

Three records drawn at random from those above, as already listed:
Order of values – NPYLR7 agonist, NPYLR7 agonist max-min
COCCn1c(-c2cn(C)nc2OC)n[nH]c1=S
    -1, -2
Cc1ccc2c(C(=O)N(C)Cc3cnccn3)cc(C)nc2c1
    1, -4
Cc1ccc(C(=O)CSc2nccn(-c3cccc(F)c3)c2=O)c(C)c1
    5, -2
